Beta apoptosis: blocks beta cell apoptosis. INS-1E cytokine-induced death, ATP luminescence, 48 h; percent of positive-control rescue, neutral wells zero. protection from apoptosis, % (no concentration beside the values). actives 0.8% (n = 300,000);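 active means all replicates at 75% or more, or half of them and the mean; inconclusive means half reach 75% but not the mean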;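 further: 0% = cytokine-treated negative control wells and 100% = positive control rescue; higher means more ATP so stronger rescue from cytokine killing; wells of about 40 µL received 100 nL stock; the first replicate is given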
Calb FLC: C. albicans growth modulation with fluconazole | actives 0.57% (n = 300,000) | C. albicans CaCi-2 (fluconazole-resistant clinical isolate) + fluconazole, Alamar Blue growth, 48 h | growth inhibition, % (concentration not given with the values);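 active means most replicates above 75%; inconclusive means exactly half above 75%; inactive means most below 75%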;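 further: all wells also contain fluconazole at 8 µg/ml as a sub-toxic cotreatment; 0% = median of DMSO wells and 100% = median of geldanamycin control wells; wells of about 8 µL received 7.5 nL stock; the first replicate is given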
Ecoli rRNA inh: selective bacterial rRNA inhibition in E. coli. GFP signal change (wild-type ribosome), % (no concentration beside the values). actives 1.6% (n = 350,000). E. coli WT GFP vs humanized-ribosome RFP mutants, fluorescence, 24 h; hits give low values; DMSO median 0, no signal -100;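 active means significant combined selectivity score with lowered wild-type GFP, culture density cut under 30%, mutant RFP and density less affected; inactive means any of these conditions unmet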; further: one replicate is shown; some compounds called inactive have numbers as strong as hits
FGF22 binding: binders of recombinant human FGF22 by thermal shift; Q9HCT0; SYPRO orange fluorescence; percent of sucrose octasulfate shift, DMSO zero; calls only at 9.99 µM; actives 1.5% (n = 340,000);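 active means melting point raised past a set limit in the mean and every replicate; inconclusive means no clear call; three in four hits are not shown here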
Target sequence (Q9HCT0 whole entry, looked up): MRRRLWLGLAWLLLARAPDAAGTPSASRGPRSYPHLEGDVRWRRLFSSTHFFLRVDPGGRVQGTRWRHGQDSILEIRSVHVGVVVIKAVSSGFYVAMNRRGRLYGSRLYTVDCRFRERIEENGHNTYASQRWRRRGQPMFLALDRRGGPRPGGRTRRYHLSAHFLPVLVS
AF4-AF9 inh: MLL-AF4/AF9 protein interaction inhibition; P42568; AlphaScreen, biotin-AF4 peptide binding to FLAG-AF9; inhibition, % at 10 µM; actives 0.47% (n = 350,000);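 active means every replicate reaching a set inhibition limit, whatever the replicate mean, cut at about 25% in these data; inconclusive means mean inhibition reaches that limit but some replicates miss it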;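 further: 0% = plate neutral control median and 100% = total signal loss; the record names both 10 and 1 µM as test concentration; the first replicate is given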
Target sequence (P42568 whole entry, looked up): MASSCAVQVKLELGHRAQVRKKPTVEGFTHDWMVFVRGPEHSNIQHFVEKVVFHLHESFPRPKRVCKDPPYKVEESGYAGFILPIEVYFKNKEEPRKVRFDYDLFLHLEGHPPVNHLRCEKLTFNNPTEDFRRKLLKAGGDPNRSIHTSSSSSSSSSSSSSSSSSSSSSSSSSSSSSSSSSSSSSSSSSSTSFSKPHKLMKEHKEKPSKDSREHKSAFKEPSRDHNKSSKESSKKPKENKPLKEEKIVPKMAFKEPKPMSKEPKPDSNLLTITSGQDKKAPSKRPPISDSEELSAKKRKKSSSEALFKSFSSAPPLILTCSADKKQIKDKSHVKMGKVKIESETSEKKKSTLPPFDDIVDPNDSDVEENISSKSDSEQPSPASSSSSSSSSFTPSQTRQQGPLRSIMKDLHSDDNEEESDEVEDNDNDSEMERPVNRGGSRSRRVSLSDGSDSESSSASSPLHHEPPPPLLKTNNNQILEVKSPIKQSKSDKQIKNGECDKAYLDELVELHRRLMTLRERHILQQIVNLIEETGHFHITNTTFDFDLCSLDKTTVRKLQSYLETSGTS
T cruzi inh: T. cruzi replication inhibition | T. cruzi beta-gal in NIH3T3, luminescence, 90 h | inhibition, % (concentration not given with the values) | actives 1.4% (n = 300,000) | AID 1885;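 active means mean inhibition across valid replicates above about 55%, limit read from the data; inconclusive means mean below that limit but half or more replicates reach it; inactive means mean below it, under half of replicates reach it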;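 further: signal also drops with host cell toxicity which is not excluded here; 0% = plate median of DMSO wells and 100% = zero luminescence signal; higher percent means less beta-gal luminescence so fewer parasites; stock transfer was 50 nL into about 50 µL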
RanGTP-Imp inh: disruptors of Ran-importin-beta complex formation – biochemical, FRET, CFP-Ran, YFP-importin-beta, homogeneous, primary screen | cell-free CFP-Ran/YFP-importin-beta FRET ratio | inhibition, % (test concentration not listed) | actives 1.1% (n = 300,000) | AID 2216;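 active means most replicates above 15%; inconclusive means exactly half above 15%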;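 further: 0% = DMSO wells and 100% = Ran loaded with GDP instead of GTP; wells of about 40 µL received 100 nL stock; the first replicate is given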
ALR inh: inhibitors of human sulfhydryl oxidase ALR | actives 3.8% (n = 290,000) | P55789 | inhibition, % (no concentration beside the values) | AID 485317 | purified ALR, DTT oxidation, H2O2 HRP-luminol luminescence;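 active means mean and each replicate at 75% or more; inconclusive means only one of the two met; inactive means neither met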;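 further: stock transfer was 7.5 nL into about 7.5 µL; 0% = neutral wells and 100% = wells with inactivated enzyme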
Target sequence (P55789 whole entry, looked up): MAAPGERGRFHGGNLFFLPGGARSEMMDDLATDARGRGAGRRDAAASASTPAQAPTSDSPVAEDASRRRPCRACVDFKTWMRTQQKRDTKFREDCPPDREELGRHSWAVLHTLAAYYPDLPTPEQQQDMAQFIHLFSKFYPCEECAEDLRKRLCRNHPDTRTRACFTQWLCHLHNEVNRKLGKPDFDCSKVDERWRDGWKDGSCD
Ecoli rRNA inh OD600: also measured in Ecoli rRNA inh; calls as there; OD600 change, %; measured here: OD600 growth;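 optical density of the mix in the first replicate; 0 = DMSO median and -100 = no signal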
Ecoli rRNA inh RFP: second read-out of Ecoli rRNA inh, no call of its own (marks repeat the call); RFP signal change, %; measured here: RFP humanized mutant strains;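 first replicate; 0 = DMSO median and -100 = no signal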
* = called active by the depositor; i = inactive; ? = inconclusive; . = no result given; & = joins results of further samples. Not all compounds are listed. The share of hits here may be higher or lower than overall.

SMILES | Beta apoptosis | Calb FLC | Ecoli rRNA inh | Ecoli rRNA inh OD600 | Ecoli rRNA inh RFP | FGF22 binding | AF4-AF9 inh | T cruzi inh | RanGTP-Imp inh | ALR inh
COc1cccc(NC(=O)CN(C)C(C)C(=O)Nc2ccc(S(=O)(=O)N3CCCC3)cc2)c1 (stereo not drawn) | 1 | -5 | -4 | -7 | -0.7 | i | 2.3 | 6 | 1.8 | -39
COc1cc(C#N)ccc1OCC(=O)NCCC1=CCCCC1 | 1 | . | 3 | 8 | -2.3 | i | -1.4 | . | . | -1
CC(=O)Nc1ccc(N2C(=O)CSC2c2ccc(F)cc2)cc1 (stereo not drawn) | -5 | 7 | . | . | . | . | . | -5 | ? | 99*
N#Cc1ccccc1NC(=O)c1cccc(COc2ccc(Cl)cc2Cl)c1 | 2 | 10 | . | . | . | . | . | 3 | 4.1 | .
COc1ccc(-c2nn3c(-c4ccccc4)nnc3s2)cc1OC | 10 | 9 | . | . | . | . | . | 1 | -1.9 | 31
Cc1ccc2c(c1)c(-c1ccccc1)nc1nncn12 | 2 | -4 | 4 | -6 | -5.0 | i | -4.3 | -1 | ? | .
O=C(C1CCC(=O)N(C2CCCC2)C1)N1CCN(Cc2cccc(Cl)c2)CC1 (stereo not drawn) | 2 | -3 | -6 | 4 | -2.9 | i | -8.5 | -2 | -1.9 | 0
CC(C)(C)[C@H]1CCC(=O)N([C@H](CN=[N+]=[N-])Cc2ccccc2)CC1 | -3 | -2 | -9 | -7 | 1.6 | i | 0.8 | 19 | -4.8 | -6
O=S(=O)(/N=C(\c1ccc(Cl)cc1)N1CCOCC1)c1ccccc1 | 2 | 4 | . | . | . | . | . | -11 | 0.5 | -4
CC(=O)Nc1nonc1-c1nc2ccccc2n1Cc1ccccc1 | 2 | -4 | . | . | . | . | . | 9 | -0.7 | -7
COc1cc(Cc2nccc3cc(OC)c(OC)cc23)c(NC(C)=O)cc1OC | 3 | 0 | 15 | 4 | -0.2 | i | 0.1 | -5 | 1.7 | -41
COc1ccccc1NC(=O)CN1CCN(CC(=O)Nc2cc(NC(C)=O)ccc2OC)CC1 | -4 | -5 | . | . | . | . | . | -4 | -0.9 | -18
CC(C)(C)Nc1nc(N2CCCC2)nc(N2CCCC2)n1 | 38 | 1 | . | . | . | . | . | 47 | 2.1 | -26
COc1ccc(C)cc1-n1nnnc1SCC(=O)c1cc(C)n(Cc2ccco2)c1C | 4 | -14 | . | . | . | . | . | 22 | -3.1 | .
CCn1c(CN2CCOCC2)nnc1SCC(=O)Nc1cccc(C)c1 | -5 | 3 | 16 | 12 | 1.6 | i | 0.3 | -1 | -0.7 | 0
CCc1cccc(OCC(=O)Nc2ccc(S(=O)(=O)Nc3onc(C)c3C)cc2)c1 | -2 | -3 | -9 | -16 | 1.7 | i | -20 | -2 | 1.1 | 95*
CCn1c(SCC(=O)Nc2ccccc2)nc2c1c(=O)n(C)c(=O)n2C | -1 | 22 | . | . | . | . | . | 8 | 3.1 | -6
CCN(CC)CC(O)COc1ccccc1C(=O)CCc1ccccc1 (stereo not drawn) | -4 | -25 | . | . | . | . | . | 4 | -2.3 | -10
COc1ccc(C(=O)COC(=O)c2ccc(-n3cnnn3)cc2)c(OC)c1 | 3 | 2 | -5 | 9 | 2.4 | i | -44 | 4 | -3.0 | 5
Cc1nc2sccn2c(=O)c1S(=O)(=O)N1CCN(c2cccc(C(F)(F)F)c2)CC1 | -4 | -16 | 0 | 2 | -1.1 | i | 1.1 | 12 | -1.3 | 1
O=S(=O)(NCCCN1CCOCC1)c1ccc(F)c(Cl)c1 | -5 | . | . | . | . | i | -0.8 | . | . | -8
CCCNC(=O)C1CCN(S(=O)(=O)c2ccc(-c3nn[nH]n3)cc2)CC1 | -3 | 1 | . | . | . | . | . | -10 | 1.4 | -2
CCOc1ccccc1C(=O)NCC(=O)N(C)Cc1cccnc1 | -8 | -1 | 5 | -9 | 1.5 | i | 6.8 | -7 | -4.1 | 1
CCC(C)(C)c1ccc(OCCCC[n+]2ccc(C)cc2)c(C(C)(C)CC)c1 | 115* | 94* | . | . | . | . | . | 35 | 1.8 | 45
C/C(Cn1cnc([N+](=O)[O-])n1)=N\NC(=O)c1cccnc1 | -3 | -6 | . | . | . | . | . | 39 | 2.9 | -12

ALR inh: entries above that show a hit.
SMILES | Ecoli rRNA inh | Ecoli rRNA inh OD600 | Ecoli rRNA inh RFP | FGF22 binding | AF4-AF9 inh | RanGTP-Imp inh | ALR inh
CC(=O)Nc1ccc(N2C(=O)CSC2c2ccc(F)cc2)cc1 (stereo not drawn) | . | . | . | . | . | ? | 99*
CCc1cccc(OCC(=O)Nc2ccc(S(=O)(=O)Nc3onc(C)c3C)cc2)c1 | -9 | -16 | 1.7 | i | -20 | 1.1 | 95*

Of the compounds above, these have a tert-butyl group.
SMILES | Beta apoptosis | Calb FLC | Ecoli rRNA inh | Ecoli rRNA inh OD600 | Ecoli rRNA inh RFP | FGF22 binding | AF4-AF9 inh | T cruzi inh | RanGTP-Imp inh | ALR inh
CC(C)(C)[C@H]1CCC(=O)N([C@H](CN=[N+]=[N-])Cc2ccccc2)CC1 | -3 | -2 | -9 | -7 | 1.6 | i | 0.8 | 19 | -4.8 | -6
CC(C)(C)Nc1nc(N2CCCC2)nc(N2CCCC2)n1 | 38 | 1 | . | . | . | . | . | 47 | 2.1 | -26

Next compounds follow.
SMILES | Beta apoptosis | Calb FLC | Ecoli rRNA inh | Ecoli rRNA inh OD600 | Ecoli rRNA inh RFP | FGF22 binding | AF4-AF9 inh | T cruzi inh | RanGTP-Imp inh | ALR inh
CCC(=O)Nc1c(-c2ccc3ccccc3c2)nc2ccccn12 | -5 | 11 | -12 | 2 | -7.6 | i | 0.4 | -6 | -1.6 | 0
NNC(=O)CSc1nc(-c2ccccc2)cn1-c1ccccc1 | 5 | -1 | -18 | -15 | 0.0 | i | -0.6 | 9 | -1.3 | 24
CCN(CC)C(=O)CSc1nnc(-c2ccco2)n1Cc1ccco1 | -1 | 13 | . | . | . | . | . | 0 | 0.0 | -1
O=C(NC(Cc1ccccc1)C(=O)O)/C(=C\c1ccc(Br)cc1)NC(=O)c1ccc(Br)o1 (stereo not drawn) | . | 10 | 1 | -2 | 0.2 | i | -11 | 6 | 12 | ?
CC1CCC(C#N)(N(C)C(=O)CSc2nnc(C3CC3)n2C2CC2)CC1 (stereo not drawn) | -3 | . | 10 | 12 | 0.8 | i | -2.5 | . | . | .
Cc1[nH]n(-c2ccccc2)c(=O)c1/C=N/N(c1ccccc1)c1ccccc1 | 9 | -14 | -15 | -6 | -2.0 | i | 16 | 0 | 3.3 | 41
Cc1ccc(-c2nnn(CC(=O)N(CC(=O)NC3CCCC3)c3ccccc3F)n2)o1 | . | -10 | 6 | 22 | 2.1 | i | 1.3 | -2 | 0.2 | .
COc1cc(CN2CCC(Cc3ccccc3)CC2)cc([N+](=O)[O-])c1O | 4 | -9 | -2 | 1 | 0.3 | i | 4.4 | -4 | -3.3 | -3
Cc1ccc(-c2n[nH]c(=S)n2/N=C/c2ccc(C)o2)cc1 | -3 | ? | . | . | . | . | . | 5 | -1.6 | -27
CCOc1ccccc1Nc1cc(C)nc2nnnn12 | -1 | -8 | 3 | 8 | -3.1 | i | 1.1 | 10 | -0.2 | -3
Cc1cccn2c(NCc3ccc4c(c3)OCO4)c(-c3ccc(O)cc3)nc12 | -5 | -33 | -28 | -24 | -3.5 | i | 1.6 | 9 | 4.2 | 20
CCOc1ccc(CNC(=O)C2CCN(S(=O)(=O)CC)CC2)cc1OC | 7 | 8 | 6 | 6 | 2.9 | . | . | -20 | -3.8 | 4
CCOC(=O)CN(C(=O)CSc1nnc(Cc2ccccc2)n1-c1ccc(C)cc1)c1ccccc1 | 8 | 43 | . | . | . | . | . | 30 | 6.2 | -11
COc1ccc(CCN2C(=O)CC(NNC(=O)c3ccccc3Br)C2=O)cc1 (stereo not drawn) | -6 | 34 | 7 | 7 | -2.7 | i | 1.6 | -9 | -1.6 | 34
CCOc1cc(/C=N/NC(=O)N/N=C/c2ccc(O)c(OCC)c2)ccc1O | 42 | 3 | 11 | 22 | 0.4 | i | 1.9 | -9 | 2.2 | 99*
COC(=O)c1ccncc1C(=O)Nc1ccc(Oc2ncc(C(F)(F)F)cc2Cl)cc1 | 2 | 5 | 1 | 2 | -2.7 | i | 0.6 | -9 | 1.0 | 1
CSc1ccc(/C=C/C(=O)OCC(=O)NC2CCS(=O)(=O)C2)cc1 (stereo not drawn) | -4 | . | 8 | 15 | -1.0 | i | -44 | . | . | 1
O=C(CSc1ccccc1)Nc1cc(Cl)ccc1Oc1ccccc1 | 8 | -18 | . | . | . | . | . | 29 | -0.4 | -1
Cn1c(CCNC(=O)C2CCCCC2)nc2cc(NC(=O)c3cccs3)ccc21 | . | -4 | 2 | -1 | -3.9 | i | -4.1 | 6 | 1.9 | .
CC(C)(C)OC(=O)NCCCCCNC(=O)c1nc[nH]c1C(=O)N1CCN(C(=O)OC(C)(C)C)CC1 | -3 | . | -3 | -2 | 0.2 | i | -2.1 | . | . | 0
O=C(CSc1n[nH]c(=O)n1Cc1ccco1)c1ccc2c(c1)OCCO2 | -7 | -4 | -6 | -8 | 1.0 | i | 2.8 | -1 | ? | 2
Cc1ccc2c(c1)Oc1ccc(NC(=O)CCl)cc1C(=O)N2 | 9 | 38 | . | . | . | . | . | 31 | 6.2 | 93*
Cc1ccc2nc(C(O)C(O)c3nc4ccc(C)cc4[nH]3)[nH]c2c1 (stereo not drawn) | -3 | ? | . | . | . | . | . | -15 | -2.8 | -8
Cc1ccc(Nc2nc(-c3ccc(F)cc3)cs2)nc1 | . | -8 | 7 | 9 | 5.1 | i | -2.3 | 40 | -0.2 | -12
COc1cccc(C(=O)Nc2cnn(C(C)C)c2)c1 | -9 | -7 | 2 | 5 | -8.2 | i | -0.8 | -5 | 2.0 | -5
CSc1nn2c(C(F)(F)F)cc(C(F)(F)F)nc2c1C(=O)O | -8 | 112* | -13 | -40 | -5.8 | i | 2.6 | -7 | -1.4 | .
COc1ccc(C2=NOC(C(=O)Nc3ccc4c(c3)OCO4)C2)cc1 (stereo not drawn) | 0 | 6 | 10 | 18 | -0.1 | i | -9.6 | -2 | 1.9 | -23
O=C(O)C1=C[C@H](c2ccc(C(F)(F)F)cc2)C[C@H](OCc2ccc(CO)cc2)O1 | 3 | -7 | 4 | 3 | -3.0 | i | -19&-20 | -8 | 3.5 | 17
CN(CC(=O)NC1CCCCCCC1)S(=O)(=O)c1cccc2cccnc12 | 11 | 4 | -12 | -25 | -4.0 | i | 3.8 | 17 | ? | -15
COc1ccc(N(C=O)C(C(=O)Nc2c(C)cccc2C)c2ccccc2)cc1 (stereo not drawn) | -4 | 1 | -3 | -11 | -0.4 | i | 0.5 | -2 | 2.2 | -5
